Compound activity as filed in PubChem.
VCAM-1 down imaging: suppression of endothelial VCAM-1 upregulation – imaging, high-content imaging, pooled HUVEC, TNFa stimulus (AID 456); HUVEC TNFa-induced VCAM-1 surface expression, immunofluorescence imaging; numbers were filed only for top-ranked candidate wells; one-dose inhibition, % at 5 µM; IC50 in µM for titrated hits; actives 0.2% (n = 10,000);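 active means top tenth filtered wells with inhibition above zero that passed visual or statistical confirmation; inactive means the rest, including hits rejected on review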;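 further: 0% = stimulated vehicle wells and 100% = unstimulated cells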
VCAM-1 inhibition: suppression of endothelial VCAM-1 upregulation – cell-based, plate reader, pooled HUVEC, TNFa stimulus (AID 454). HUVEC TNFa-induced VCAM-1 surface immunofluorescence, plate reader; numbers were filed only for top-ranked candidate wells. inhibition, % at 5 µM. actives 0.2% (n = 10,000);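 active means compound among top-ranked inhibitors of TNF-induced VCAM-1 adhesion protein staining, with the hit upheld by image or statistical review; inactive means the rest, including hits rejected on review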;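 further: 0% = TNFa with vehicle and 100% = cells without TNFa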
VCAM-1 augmentation: enhancers of VCAM-1 display on endothelial cells, imaging, high-content imaging, pooled HUVEC, TNFa stimulus (AID 457); calls only; Pooled HUVEC, TNFa-induced VCAM-1 immunofluorescence imaging; hits of this screen are not shown here; actives 0.2% (n = 10,000);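 active means a top-ranked rise in VCAM-1 staining upheld on image or statistical review; inactive means the rest, including candidates rejected on review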;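 further: compounds tested at 5 µM in the well; cells exposed to compound for 24 hours before fixing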
FPRL1 ligand: ligands of human FPRL1, also counter-screen for FPR ligands. inhibition, %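 (tested at 6.7 µM)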. FPRL1-expressing cells, fluorescent ligand binding inhibition, flow cytometry. actives 0.3% (n = 24,000). P25090. AID 441;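 further: 0% = buffer alone and 100% = receptor blocker peptide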
Target sequence (P25090 whole entry, looked up): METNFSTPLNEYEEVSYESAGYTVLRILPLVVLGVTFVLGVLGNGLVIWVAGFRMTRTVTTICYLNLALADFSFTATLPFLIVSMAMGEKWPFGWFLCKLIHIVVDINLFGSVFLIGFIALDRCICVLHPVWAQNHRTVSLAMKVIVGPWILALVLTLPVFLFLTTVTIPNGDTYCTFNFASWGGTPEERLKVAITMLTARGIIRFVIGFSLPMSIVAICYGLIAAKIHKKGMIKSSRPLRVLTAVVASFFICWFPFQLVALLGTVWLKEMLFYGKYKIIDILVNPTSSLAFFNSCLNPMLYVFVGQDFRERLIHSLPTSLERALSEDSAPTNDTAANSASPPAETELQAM
FPR binder: ligands of human FPR, also counter-screen for FPRL1 ligands; P21462; FPR-expressing cells, fluorescent ligand binding, flow cytometry; inhibition, %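 (tested at 6.7 µM)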; actives 0.74% (n = 24,000); AID 440;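 further: 0% = buffer wells and 100% = receptor blocker peptide wells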
Target sequence (P21462 whole entry, looked up): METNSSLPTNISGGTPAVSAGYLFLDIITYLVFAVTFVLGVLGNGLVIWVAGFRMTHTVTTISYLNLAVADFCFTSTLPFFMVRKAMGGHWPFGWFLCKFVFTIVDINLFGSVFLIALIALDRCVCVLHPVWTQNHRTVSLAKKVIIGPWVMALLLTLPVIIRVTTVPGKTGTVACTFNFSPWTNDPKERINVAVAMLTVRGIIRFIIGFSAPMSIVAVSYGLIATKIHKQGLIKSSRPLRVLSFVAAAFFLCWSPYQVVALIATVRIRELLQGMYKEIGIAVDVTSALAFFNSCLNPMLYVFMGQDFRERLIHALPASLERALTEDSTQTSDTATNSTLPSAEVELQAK
* hit, by the source's call; i = inactive; . = not tested or not shown.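 How the source made its calls, unless noted: active means mean above 30%; inconclusive means self-fluorescent; inactive means the rest.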 This is a subset; rates above refer to the full screens.

SMILES	VCAM-1 down imaging	VCAM-1 inhibition	VCAM-1 augmentation	FPRL1 ligand	FPR binder
O=C(Cc1c[nH]c2ccccc12)N1CCc2ccccc21	i	i	i	0	1
OCCNc1nc2ccc(Cl)cc2[nH]1	i	i	i	4	8
Cc1ccc2c(C)[nH]c(=O)cc2c1	.	.	.	-5	-4
Cc1ccc(C)n1NC(=O)c1ccco1	i	i	i	-8	-8
COC(=O)Cn1nc(-c2ccccc2)c2ccccc2c1=O	.	.	.	-5	2
CC(=O)c1c(C)c[nH]c1C	.	.	.	6	1
Cn1c(NC(=O)c2cccc(Cn3cc(Cl)cn3)c2)nc2ccccc21	i	i	i	-10	-5
O=C1CC(c2cc3c(cc2Br)OCO3)C2=C(CCCC2=O)N1 (stereo unspecified)	.	.	.	-9	3
O=C(C1CCN(S(=O)(=O)N2CCOCC2)CC1)N1CCN(c2ccccc2)CC1	.	.	.	1	0
CC(C)C(=O)NCCn1ccc2ccccc21	.	.	.	4	6
CN1CCN(CCCNC(=O)Cn2nc(-c3ccccc3)ccc2=O)CC1	.	.	.	6	-8
COCC(C)NC(=O)NC(=O)c1ccc(Cl)cc1 (stereo unspecified)	i	i	i	11	10
COC(=O)c1ccc(CSc2nnc(CNC(=O)c3cccs3)o2)o1	.	.	.	1	0
N#CC1=C(N)N(c2ccccc2)C(c2ccccc2)C1(C#N)C#N (stereo unspecified)	i	i	i	3	3
CSc1nc(N)nc(SCC(=O)c2ccc(C)cc2)c1C#N	.	.	.	7	-2
Cc1nc2sc(C(c3ccc(Cl)cc3)N3CCOCC3)c(O)n2n1 (stereo unspecified)	.	.	.	2	-2
CCCN(CCC)S(=O)(=O)c1ccc2c(c1)CCCN2C(C)=O	.	.	.	-4	5
O=C(c1c(F)cccc1F)N1CCN(c2ccccc2F)CC1	.	.	.	2	0
CCCS(=O)(=O)N1CCCC(C(=O)NCCCN(C)c2ccccc2)C1 (stereo unspecified)	.	.	.	3	-2
O=C(NCCCN1CCCC1)C1CCC(=O)N1C1CCCCC1 (stereo unspecified)	.	.	.	-9	-5
CC(/C=N/O)Cc1ccc2c(c1)OCO2 (stereo unspecified)	.	.	.	-10	-2
CC(Sc1nnc(N)s1)c1ccccc1Cl (stereo unspecified)	.	.	.	1	2
Cc1ccc(NC(=O)CS(=O)(=O)c2c[nH]c3ccccc23)c(C)c1	.	.	.	9	4
CCOc1ccc(Oc2nc(Nc3ccc(C)cc3)nc(N(C)C)n2)nn1	i	i	i	-8	-10
CCCc1cc(=O)n2[nH]cnc2n1	i	i	i	4	-2
C=CCNC(=O)c1sc(=S)n(-c2ccc(C(=O)OCC)cc2)c1N	.	.	.	-1	2
O=C(c1cccnc1)N1CCN(Cc2ccc3c(c2)OCO3)CC1	i	i	i	6	2
Cn1nnc2c(sc3nc(N4CCOCC4)c4c(c32)CCCC4)c1=O	i	i	i	3	-8
CCOC(=O)N1CCC(NC(=O)C2CCCN(C(=O)N3CCOc4ccccc43)C2)CC1 (stereo unspecified)	.	.	.	0	-2
CCCS(=O)(=O)N1CCC(C(=O)NCCN(C)Cc2ccccc2)CC1	.	.	.	2	-8
CCOc1ccc2c(c1)sc(=NC(=O)C1CC1)n2C	.	.	.	-4	-1
CCC(NS(=O)(=O)c1c(C)[nH]c(=O)[nH]c1=O)C12CC3CC(CC(C3)C1)C2 (stereo unspecified)	.	.	.	-9	-3
CS(=O)(=O)N(CC(=O)N1CCc2ccccc2C1)c1ccc2c(c1)OCO2	i	i	i	-2	2
Cc1ccc(NC(=O)Cn2c(C)cc(C)c(C#N)c2=O)c(Cl)c1	.	.	.	8	7
CCOC(=O)C1CCCN(C(=O)CCNS(=O)(=O)c2ccc3c(c2)CCC(=O)N3)C1 (stereo unspecified)	.	.	.	1	5
Cc1csc(NC(=O)Cc2nn(C)c(=O)c3ccccc23)n1	.	.	.	-6	-5
Cc1c(C(=O)NCC2CCCO2)oc2ccc(S(=O)(=O)N3CCCC3)cc12 (stereo unspecified)	.	.	.	-1	5
COc1ccc(CN(Cc2cc3cc4c(cc3[nH]c2=O)OCO4)C(=O)NC2CCCCC2)cc1	i	i	i	3	14
CCOC(=O)N1CCC(NC(=O)Cn2cc3c(n2)CCCC3)CC1	.	.	.	-6	-10
CCOc1ccc(-n2c(=O)[nH]cc(C(=O)N3CCc4ccccc43)c2=O)cc1	.	.	.	-4	-1

Three compounds out of the list, sorted by heavy-atom count, descending:
SMILES	VCAM-1 down imaging	VCAM-1 inhibition	VCAM-1 augmentation	FPRL1 ligand	FPR binder
Cc1c(C(=O)NCC2CCCO2)oc2ccc(S(=O)(=O)N3CCCC3)cc12 (stereo unspecified)	.	.	.	-1	5
Cc1csc(NC(=O)Cc2nn(C)c(=O)c3ccccc23)n1	.	.	.	-6	-5
CCOc1ccc2c(c1)sc(=NC(=O)C1CC1)n2C	.	.	.	-4	-1

Just FPRL1 ligand and VCAM-1 inhibition (2 entries from above):
Structure,FPRL1 ligand,VCAM-1 inhibition
CCOc1ccc(-n2c(=O)[nH]cc(C(=O)N3CCc4ccccc43)c2=O)cc1,-4,.
CCOc1ccc2c(c1)sc(=NC(=O)C1CC1)n2C,-4,.

The list continues:
SMILES	VCAM-1 down imaging	VCAM-1 inhibition	VCAM-1 augmentation	FPRL1 ligand	FPR binder
COCCNc1ncnc2nc[nH]c12	.	.	.	-24	-22
CN(CCCNC(=O)C1CCCN(S(=O)(=O)c2cnc[nH]2)C1)c1ccccc1 (stereo unspecified)	.	.	.	1	-7
Cc1cccc(OCC(=O)N2CCC(N3CCCCCC3)CC2)c1	i	i	i	1	-7
CCN(CC)CCCN(Cc1cc2cc(OC)ccc2[nH]c1=O)C(=O)Nc1ccccc1	i	i	i	2	1
O=C(CSc1ncc(-c2ccc(F)cc2)[nH]1)N1CCCCC1	i	i	i	1	-2
COc1ccc(OC)c(C(=O)COC(=O)c2cc(C)oc2C)c1	i	i	i	-4	3
C=C(C)C1Cc2nc(N)nc(C)c2C1 (stereo unspecified)	.	.	.	0	-2
CCN(c1ccccc1)S(=O)(=O)c1ccc(C(=O)Nc2nnc(COC)o2)cc1	.	.	.	4	1
COc1cccc(Oc2c(C)oc3c(CN4CCOCC4)c(O)ccc3c2=O)c1	.	.	.	1	-8
CCN(CCCNC(=O)COc1cc(=O)n(C)c2ccccc12)c1ccccc1	.	.	.	-2	-1
CCN1CCN(c2ncc(C(=O)Nc3c(F)cc(F)cc3Br)c3ccccc23)CC1	.	.	.	11	-11
Cn1ncc2c(Nc3ccccc3Br)ncnc21	i	i	i	3	-3
O=C(O)c1[nH]nc2c1COc1ccccc1-2	i	i	i	-2	1
Cc1ncoc1C(=O)Nc1ccc2c(c1)OCCO2	.	.	.	8	-2

4 entries from above, field by field.
> CCN1CCN(c2ncc(C(=O)Nc3c(F)cc(F)cc3Br)c3ccccc23)CC1
  VCAM-1 down imaging = .
  VCAM-1 inhibition = .
  VCAM-1 augmentation = .
  FPRL1 ligand = 11
  FPR binder = -11
> Cc1ncoc1C(=O)Nc1ccc2c(c1)OCCO2
  VCAM-1 down imaging = .
  VCAM-1 inhibition = .
  VCAM-1 augmentation = .
  FPRL1 ligand = 8
  FPR binder = -2
> Cn1ncc2c(Nc3ccccc3Br)ncnc21
  VCAM-1 down imaging = i
  VCAM-1 inhibition = i
  VCAM-1 augmentation = i
  FPRL1 ligand = 3
  FPR binder = -3
> O=C(O)c1[nH]nc2c1COc1ccccc1-2
  VCAM-1 down imaging = i
  VCAM-1 inhibition = i
  VCAM-1 augmentation = i
  FPRL1 ligand = -2
  FPR binder = 1
